High-throughput results deposited in PubChem by National Center for Advancing Translational Sciences (NCATS).
A488 fluor = A488 region autofluorescence; compound autofluorescence, A488 spectral region, dye equivalency; active compounds read high; max dye equivalency, M; 0.1% of 59,000 active; active = above 10 nM dye equivalent; inconclusive = 1 to 10 nM; inactive = 1 nM or less; about half of its hits are not listed in these tables;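 also: highest value over a series up to 38 µM; compound alone in buffer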
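Compound autofluorescence was read in 100 mM Tris pH 8.0 after 15 min at room temperature, ex 480 nm/em 540 nm. Intensities were converted to A488 dye-equivalent concentration using an on-plate six-point A488 standard curve.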
TSHR ag = TSH receptor (human) agonism | P16473 | HEK293-CNG-TSHR cells (CNG channel as cAMP sensor), membrane potential dye, cAMP | Potency, µM (series often up to 57.1 µM), inactives show top-dose activation, hits mostly activators | 0.48% of 73,000 active; active = well fitted activation curve of enough size with the parental cells flat; inconclusive = any curve in the parental cells; inactive = parental cells flat and receptor cells flat or falling; also: potency is read from the fitted curve at half-maximal effect; % of control where 0% means no effect; weak receptor curves with flat parental cells got no call and are not listed
Target sequence (P16473 whole entry, looked up): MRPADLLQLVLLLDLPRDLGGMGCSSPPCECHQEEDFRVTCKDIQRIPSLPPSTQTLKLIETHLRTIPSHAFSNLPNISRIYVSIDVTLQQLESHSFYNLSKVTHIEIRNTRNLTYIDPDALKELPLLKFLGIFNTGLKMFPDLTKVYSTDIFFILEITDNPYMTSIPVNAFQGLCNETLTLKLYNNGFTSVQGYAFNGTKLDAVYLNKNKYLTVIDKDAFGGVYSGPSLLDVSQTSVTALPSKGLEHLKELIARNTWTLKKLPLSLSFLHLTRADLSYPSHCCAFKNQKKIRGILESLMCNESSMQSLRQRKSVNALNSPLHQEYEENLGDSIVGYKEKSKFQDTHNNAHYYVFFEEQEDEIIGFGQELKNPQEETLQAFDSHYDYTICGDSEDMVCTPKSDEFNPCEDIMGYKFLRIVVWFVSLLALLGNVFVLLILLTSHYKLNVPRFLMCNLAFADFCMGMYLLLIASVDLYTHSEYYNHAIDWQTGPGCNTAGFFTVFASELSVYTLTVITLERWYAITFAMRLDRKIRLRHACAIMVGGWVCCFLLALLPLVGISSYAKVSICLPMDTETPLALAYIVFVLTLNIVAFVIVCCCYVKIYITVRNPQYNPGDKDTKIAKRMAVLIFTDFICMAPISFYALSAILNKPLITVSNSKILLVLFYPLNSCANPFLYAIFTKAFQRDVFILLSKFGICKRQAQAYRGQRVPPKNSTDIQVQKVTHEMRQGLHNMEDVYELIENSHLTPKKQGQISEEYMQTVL
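HEK 293 cells stably expressing TSHR and a cAMP-gated CNG channel; parental CNG-only cells as counterscreen. Cells preloaded 60 min with membrane potential dye plus 100 uM RO 20-1724, then compound 30 min; fluorescence read at 590 nm.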
AID923 = qHTS Assay for Allosteric/Competitive Inhibitors of Caspase-1: Spectroscopic Profiling in AFC Spectral Region; compound fluorescence, AFC spectral region (405/520 nm); almost no hit is shown here; Potency, µM (highest dose often 57.5 µM), without a hit: top-dose fluorescence increase, usual class: activators; 1.1% of 75,000 active; AID 923, 2007; active = well fitted activation curve with a large enough effect; inconclusive = small, poorly fitted or top-dose-only effect;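 also: potency is read from the fitted curve at half-maximal effect; 0% is about no effect; scaled to a free AFC standard on each plate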
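Baseline compound fluorescence (AFC region, 405 nm ex/520 nm em) taken from the intercept of kinetic reads with 50 nM caspase-1 and 5 uM Ac-WEHD-AFC; normalized to an on-plate AFC standard curve; compounds titrated up to 57 uM.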
A647 autofl = A647 region autofluorescence; 59,000 tested, under 10 active; Compound fluorescence, A647 channel (570/671 nm), Tris buffer; max dye-equivalent concentration, M; active means above 1 µM dye equivalent; inconclusive means 0.1 to 1 µM; inactive means 0.1 µM or less;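 also: values scaled relative to a standard on each plate; highest value over a series up to 38 µM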
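Fluorescence read (570 nm ex, 671 nm em) after 15 min RT incubation of compounds in 100 mM Tris buffer, pH 8.0; values expressed as dye-equivalent concentration against a six-point A647 standard series on each plate.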
Resorufin autofl = compound fluoresces in the resorufin spectral region; 0.04% of 59,000 active; Compound fluorescence, resorufin region 547/598 nm, buffer; active compounds read high; max dye-equivalent concentration, M; active = above 10 nM dye equivalent; inconclusive = 1 to 10 nM; inactive = 1 nM or less; a few of its hits are not listed in these tables; also: highest value over a series up to 38 µM
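Intrinsic fluorescence profiled in the resorufin window (ex 547 nm, em 598 nm) after 15 min at room temperature in pH 8.0 Tris buffer (100 mM); responses normalized against a six-point resorufin standard series as dye-equivalent concentration.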
The depositor's hits bear a star; i = inactive; ? = inconclusive; / = not tested or not shown; & = joins results of further samples; [ ] = remark or other dose.

no.	mol	A488 fluor	TSHR ag	AID923	A647 autofl	Resorufin autofl
1	CC(=O)c1cccc(NC(=O)c2cc(C(C)C)on2)c1	/	17%	-1.7%	/	/
2	CCCCC(NC(C)=O)c1nc2ccccc2n1CCC (configuration not stated)	i	-1%[11.4 µM]	-0.8%	1.5e-08	i
3	CCOc1ccccc1Oc1c(C)oc2c(CN3CCN(C)CC3)c(O)ccc2c1=O	i	2%	4.3%	1.6e-08	i
4	CC(C)(O)c1nnn(-c2ccccc2)c1C(F)(F)F	i	2%	-1.3%	2.5e-08	i
5	O=C1CCC(=O)N1OCCCCOc1ccccc1	i	-1%	-0.5%	2.1e-09	i
6	COc1ccccc1N1CCN(CCOc2c(OC)cccc2OC)CC1	i	/	/	4.3e-09	i
7	Cc1cc(=O)[nH]c2c1cnn2Cc1ccccc1	i	0%	1.1%	1e-09	i
8	CCOC(=O)N1CCC(N2C(=O)c3ccccc3C2Nc2cc(Cl)c(OC)cc2OC)CC1 (configuration not stated)	/	-6%	1.7%	/	/
9	Cc1nc(NCc2ccco2)c2oc3ccccc3c2n1	i	22%	-0.3%	2.1e-08	i
10	COC(=O)[C@@]1(Cc2ccc(OC)cc2)[C@H]2c3cc(C(=O)N4CCCC4)n(CCCNc4ncc(C(F)(F)F)cc4Cl)c3C[C@H]2CN1C(=O)c1ccccc1	/	4%	-0.2%	/	/
11	C=CCn1c(SCC(=O)NCc2ccc3c(c2)OCO3)nnc1C1COc2ccccc2O1 (configuration not stated)	i	12%	0.6%	3.1e-08	i
12	COc1ccccc1NS(=O)(=O)c1ccc(NC(C)=O)cc1	i	2%	-1.0%	4.4e-08	i
13	Cc1nnc(SCC(=O)Nc2ccc3c(c2)OCO3)o1	i	-3%	0.9%	2.1e-08	i
14	CCOC(=O)CSc1nnc(N)s1	i	-1%	-3.2%	2.3e-09	i
15	COc1cccc(C(=O)NCC(=O)n2nc(C)cc2C)c1	i	/	/	7.5e-08	i
16	CCOc1ccc(-c2noc(CCC(=O)O)n2)cc1	/	1%	2.3%	/	/
17	COc1cc(OC)cc(OCC(O)Cn2cnc3cc(C)c(C)cc32)c1 (configuration not stated)	/	9%	-1.4%	/	/
18	CCOC(=O)C1CCCN(CCCc2ccccc2)C1 (configuration not stated)	i	7%	0.2%	3.9e-09	i
19	O=c1oc(-c2cccs2)nc2c1cnn2-c1ccccc1	/	8%	0.6%	/	/
20	CC1CCc2nn(CC(=O)NC3CCCC3)cc2C1 (configuration not stated)	/	3%	-2.3%	/	/

Reformatted: entries from further up
13: Cc1nnc(SCC(=O)Nc2ccc3c(c2)OCO3)o1
14: CCOC(=O)CSc1nnc(N)s1
15: COc1cccc(C(=O)NCC(=O)n2nc(C)cc2C)c1
16: CCOc1ccc(-c2noc(CCC(=O)O)n2)cc1
17: COc1cc(OC)cc(OCC(O)Cn2cnc3cc(C)c(C)cc32)c1 (configuration not stated)
18: CCOC(=O)C1CCCN(CCCc2ccccc2)C1 (configuration not stated)

Assay by compound | 13 | 14 | 15 | 16 | 17 | 18
A488 fluor | i | i | i | / | / | i
TSHR ag | -3% | -1% | / | 1% | 9% | 7%
AID923 | 0.9% | -3.2% | / | 2.3% | -1.4% | 0.2%
A647 autofl | 2.1e-08 | 2.3e-09 | 7.5e-08 | / | / | 3.9e-09
Resorufin autofl | i | i | i | / | / | i

(next part)
no.	mol	A488 fluor	TSHR ag	AID923	A647 autofl	Resorufin autofl
21	CCOc1ccc(C(=S)N2CCOCC2)cc1	/	0%	2.5%	/	/
22	COC(=O)c1ccccc1NS(=O)(=O)c1cn(C)c(=O)n(C)c1=O	/	9%	-2.6%	/	/
23	O=C(CSc1nnc(CNC(=O)c2cccs2)o1)Nc1ccc2c(c1)OCO2	i	8%[11.4 µM]	1.0%	2.4e-08	i
24	Cc1cc(S(=O)(=O)N2CCCC2)ccc1OCC(=O)NCc1ccco1	i	5%	1.6%	3.8e-09	i
25	COCc1cc(C)nc(SCC(=O)Nc2cc3c(cc2C#N)OCO3)c1C#N	i	5%[11.4 µM]	2.9%	3.6e-09	i
26	O=S(=O)(NC1CCc2ccccc21)c1ccc(S(=O)(=O)N2CCCC2)cc1 (configuration not stated)	i	?	1.3%	3.5e-08	i
27	O=C(Nc1ccc(Br)cn1)c1ccc2nccnc2c1	i	-4%	-2.1%	6e-09	i
28	C=CC1CO1 (configuration not stated)	/	?	2.9%	/	/
29	COc1ccc(NS(=O)(=O)c2ccc(I)cc2)cc1N1CCN(C)CC1	/	1%	-2.6%	/	/
30	FC(F)(F)c1cc(-c2ccco2)nc(-n2cnc3ccccc32)n1	i	?	-0.8%	7.8e-09	i
31	COCCNC(=O)c1ccc(CS(=O)(=O)c2ccc(Cl)cc2)o1	i	3%[11.4 µM]	0.0%	1e-09	i
32	Cc1ccc(C)c(-n2c(SCC(=O)N3CCCC3)nnc2-c2ccccn2)c1	i	11%	0.6%	2.8e-08	i
33	O=C(NCCN1CCN(C(=O)NC2CCCCC2)CC1)NC1CCCCC1	i	-3%	-0.1%	6.7e-08	i
34	O=C(NC1=NCCS1)C1CC(=O)N(c2ccccc2)C1 (configuration not stated)	i	-2%	0.3%	1.9e-08	i
35	O=C1c2ccccc2CC1Sc1nnc(-c2ccccn2)o1 (configuration not stated)	i	5%	-0.3%	1e-09	i
36	CCCCC#CC1C=CC(Oc2cc(OC)c(OC)c(OC)c2)C(COC(=O)OCC)O1 (configuration not stated)	/	13%[11.4 µM]	-2.7%[11.5 µM]	/	/
37	Nc1nc(CSc2nnc(-c3cccc(F)c3)n2-c2ccccc2)nc(N2CCOCC2)n1	i	10%	0.8%	3.1e-09	i
38	CS(=O)(=O)N(CCc1ccccc1)CC(=O)N1CCc2ccccc2C1	i	18%	14%	7.2e-09	i
39	O=C(c1csnn1)N1CCC2(CCCN(Cc3ccccc3)C2)CC1	i	13%	0.9%	1e-09	i
40	C[C@@H]1OC2C3=C(C(=O)[C@H]4O[C@@H]4[C@H]3O)[C@@H]1[C@H]1[C@H](C)OC=C3[C@H](O)[C@H]4O[C@H]4/C(=N\OCc4ccccc4)[C@@]321	/	-3%[11.4 µM]	0.7%[11.5 µM]	/	/
41	CC(OC(=O)c1cc2sccc2n1C)C(=O)NCc1cccs1 (configuration not stated)	i	23%	1.5%	1e-09	i
42	COc1ccc(Cn2nnnc2C(C(C)C)N2CCc3ccccc32)cc1 (configuration not stated)	i	?	-1.4%	1e-09	i
43	Nc1cccc(-n2nncc2-c2ccccc2)c1	i	?	-0.3%	3.8e-09	i
44	CC1(C)Cc2ccccc2-c2nnc(-c3cccnc3)n21	i	7%	1.2%	1.5e-09	i
45	COc1ccccc1S(=O)Cc1ccc(C(=O)O)o1 (configuration not stated)	i	7%	0.2%	2.7e-09	i
46	COC(=O)[C@@H](N)Cc1ccc(O)c(O)c1	i	7%	-2.0%	1e-09	i
47	COc1ccc(N(CN2C(=O)C3C4C=CC(C4)C3C2=O)C(=O)c2ccco2)cc1 (configuration not stated)	i	/	/	2.6e-08	i
48	O=C(C1CCCCC1)N1CCN=C1SCc1cccnc1	/	-6%	-1.1%	/	/
49	CS(=O)(=O)Nc1ccc([N+](=O)[O-])cc1Oc1ccccc1	i	?	-2.3%	4.7e-08&1e-09&8.9e-09	i
50	CC(=O)Nc1cc2c(=O)n(Cc3ccccc3)c(C)nc2cc1N1CCOCC1	i	5%	-0.6%	3.8e-08	i
51	O=S(=O)(O)[C@@H](c1ccccc1)[C@@H](O)c1ccccc1	i	0%[11.4 µM]	1.8%[11.5 µM]	1.5e-09	i
52	Cc1ccc2cccc(OC(=O)c3ccc4c(c3)OCCO4)c2n1	i	4%	2.0%	1.5e-09	i
53	CO/N=C(\C(=O)N[C@@H]1C(=O)N2C(C(=O)O)=C(COC(C)=O)CS[C@H]12)c1csc(N)n1 (stereo in doubt)	/	3%	5.1%	/	/
54	CCOCCCNC(=O)C1CCN(S(=O)(=O)CC)CC1	i	?	0.4%	3e-08	i
55	COc1ccc(CCNS(=O)(=O)c2ccc3c(c2)oc(=O)n3C)cc1OC	/	-1%	1.1%	/	/
56	CCOC(=O)c1c(NC(=O)c2ccoc2C)sc2c1CCC2	i	?	0.7%	7.8e-09	i
57	Cc1cc(NC(=O)CCN2C(=O)c3ccccc3C2=O)no1	i	-3%	0.6%	4e-09	i
58	COc1ccc(Oc2ncc3nc(-c4ccc(OC)cc4)c(=O)n(C4CC4)c3n2)cc1	i	3%	20µM*	2.2e-08	i
59	Cc1nc2ncnn2c(C)c1CCC(=O)Nc1ccc(S(=O)(=O)N2CCCCCC2)cc1	i	-1%	0.2%	2.9e-08	i
60	Cc1ccc2cc(CCNC(=O)C(C)C)c(=O)[nH]c2c1	/	0%	-3.5%	/	/
61	COc1ccc(CNC(=O)c2ccc(NS(=O)(=O)c3c(C)noc3C)cc2)cc1	i	1%	1.3%	1e-09	i
62	CCOC(=O)N1CCC(NS(=O)(=O)c2ccc3c(c2)OCC(=O)N3)CC1	i	?	1.1%	2.3e-08	i
63	Cc1c(NS(=O)(=O)c2cccs2)c(=O)n(-c2ccccc2)n1C	i	4%	-1.6%	1e-09	i
64	CC1CN(S(=O)(=O)c2ccc(Cl)c(C(F)(F)F)c2)CC(C)O1 (configuration not stated)	i	?	-0.3%	1e-09	i
65	Cc1nc(CSc2nnc3scc(-c4ccccc4)n23)cs1	i	7%	0.7%	2.2e-08	i
66	O=C1C(Cl)=C(N2CCN(Cc3ccccc3)CC2)C(=O)N1c1ccccc1	i	16%	0.8%	1e-09	i
67	Cc1cc(=O)oc(C)c1C(=O)NCCc1ccccc1	i	/	/	1e-09	i
68	Cn1c(=O)c2c(nc(N3CCOCC3)n2CC(=O)C23CC4CC(CC(C4)C2)C3)n(C)c1=O	i	17%	1.2%	4.2e-09	i
69	COCC(=O)Nc1nc2n(n1)C(c1ccc(OC)cc1)CC(c1ccc(OC)cc1)N2 (configuration not stated)	i	2%	2.0%	1e-09	i
70	CN1C(=O)N(C)C2(c3ccccc3)N(C)C(=O)NC12c1ccccc1 (configuration not stated)	i	5%	-0.4%	4.3e-08	i
71	CCC(=O)N(c1ccc(F)cc1)C1C=CS(=O)(=O)C1 (configuration not stated)	i	0%	1.0%	5.9e-09	i
72	O=C(c1ccc2c(c1)OCCO2)C1CCN(C(=O)c2ccc(F)cc2)CC1	i	13%	-0.5%	1.6e-09	i
73	COc1ccccc1-n1nnnc1SCc1ccccc1	i	7%	-1.1%	3.5e-09	i
74	Cc1cc(NC(=O)Nc2ccc(F)c(Cl)c2)no1	i	-12%	-0.9%	6.7e-09	i
75	Cc1ccc(-c2noc(CN3CCN(c4ccccc4F)CC3)n2)cc1	/	8%	0.0%	/	/
76	O=C(NCc1ccccc1)N1CCC(c2nc3ccccc3[nH]2)CC1	i	-1%	1.0%	1e-09	i
77	Cc1ccc(-c2ccc(OCC(=O)N3CCOCC3)cc2)cc1	i	15%	-1.7%	7e-09	i
78	Cc1ccc(C(=O)OCC(=O)c2ccc(Cl)s2)s1	i	16%	0.1%	2.5e-09	i
79	Cc1nn(CCO)c2c1C(=O)CCC2	i	/	/	1e-09	i

Some of the compounds tested. The share of hits here may be higher or lower than overall.
